TRPML1 inh – blocks the human TRPML1 channel; Q9GZU1; TRPML1-inducible cells, Ca2+ dye fluorescence, FDSS; hits give low values; inhibition of EC80 agonist-evoked calcium signal; activity change, negative = inhibition, % (no concentration beside the values); hit rate 0.02% among 390,000; AID 624415; in the data active means activity change below about -50%; inconclusive means about -30% to -50%; inactive means above about -30%;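 also: stimulus is agonist 54-4 at its EC80 concentration; % is scaled to controls: 0 for no effect and ±100 for the full control effect; compound concentration not given in the record; the text of the record puts the active cut at -80%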
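TRPML1-DL cells, Tet-induced overnight (~16 h, 37 °C) at 1,500 cells/well, were loaded with Ca8 no-wash dye plus quencher for 45-90 min at room temperature. Compounds were pinned during FDSS kinetic reading; agonist 54-4 at EC80 (4 uM final) then added.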
D2 agonist – activates the human D2 dopamine receptor | DiscoveRx PathHunter D2 beta-arrestin, luminescence, 90 min; 100% = 57 uM dopamine signal | activation, % (no concentration beside the values) | hit rate 0.084% among 360,000 | AID 624465; in the data active = activation above about 40%; inconclusive = about 15% to 40%; inactive = below about 15%; also: compound concentration not given in the record; the text of the record calls up to 30% inactive
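DiscoveRx PathHunter D2 beta-arrestin cells (2,100/well) attached overnight, then compound-stimulated 90 min at 37 C in HBSS/10 mM HEPES/0.1% Tween-20 buffer; beta-galactosidase complementation read by luminescence after 1 h at ambient temperature. Dopamine 57 uM final (EC100) as control.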
TRPML1 ag – agonists of human TRPML1 channel; activation, % (concentration not given with the values); hit rate 0.12% among 410,000; AID 624414; Q9GZU1; TRPML1-expressing cells, Ca2+ dye fluorescence, FDSS; host cell line not named in the record; reference of the full effect not given here; in the data active = activation above about 50%; inconclusive = about 30% to 50%; inactive = below about 30%; also: 0% is about no effect; the text of the record puts the active cut at 80%
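Calcium fluorescence on an FDSS kinetic reader gave the read-out. Tet-induced TRPML1-DL cells were plated overnight, dye-loaded (Ca8 with quencher, 45-90 min, room temperature, dark), then read 110 s after compound addition, and again 110 s after 4uM final 54-4 (EC80).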
PINK1 expr mod – modulators of PINK1 expression; PINK1 immunofluorescence, high-content cytometry, 24 h; Potency, µM (top dose mostly 76.6 µM), without a hit: at the highest dose activation (PINK1 increase), actives largely listed as activators; hit rate 0.2% among 410,000; AID 624263; active = well fitted activation curve with a large enough effect; inconclusive = small, poorly fitted or top-dose-only effect; inactive = flat fitted curve, though single readings scatter; cell line not stated here;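 also: potency is read from the fitted curve at half-maximal effect; % of control where 0% means no effect; nearly all actives have a fitted effect of over 65% in size; a mitochondrial uncoupler was the plate control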
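Fluorescence from anti-PINK1 antibody, together with nuclear and cell stains, was scanned on a laser-scanning cytometer. Before staining, stable-line cells were incubated 24 hours with compounds at 5 concentrations; primary antibody 12 h at 10 degrees C.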
Six1-Eya2 blk – blocks human Six1 binding to Eya2. Q15475+O00167. AlphaScreen GST-Six1/His-Eya2 binding, biochemical; hits give low values; control for the full effect not named in the record. activity change, % (concentration not given with the values). hit rate 0.56% among 360,000. AID 651725; in the data active = activity change below about -65%; inconclusive = about -30% to -65%; inactive = above about -30%; also: % is scaled to controls: 0 for no effect and ±100 for the full control effect
Target sequence (O00167 whole entry, looked up): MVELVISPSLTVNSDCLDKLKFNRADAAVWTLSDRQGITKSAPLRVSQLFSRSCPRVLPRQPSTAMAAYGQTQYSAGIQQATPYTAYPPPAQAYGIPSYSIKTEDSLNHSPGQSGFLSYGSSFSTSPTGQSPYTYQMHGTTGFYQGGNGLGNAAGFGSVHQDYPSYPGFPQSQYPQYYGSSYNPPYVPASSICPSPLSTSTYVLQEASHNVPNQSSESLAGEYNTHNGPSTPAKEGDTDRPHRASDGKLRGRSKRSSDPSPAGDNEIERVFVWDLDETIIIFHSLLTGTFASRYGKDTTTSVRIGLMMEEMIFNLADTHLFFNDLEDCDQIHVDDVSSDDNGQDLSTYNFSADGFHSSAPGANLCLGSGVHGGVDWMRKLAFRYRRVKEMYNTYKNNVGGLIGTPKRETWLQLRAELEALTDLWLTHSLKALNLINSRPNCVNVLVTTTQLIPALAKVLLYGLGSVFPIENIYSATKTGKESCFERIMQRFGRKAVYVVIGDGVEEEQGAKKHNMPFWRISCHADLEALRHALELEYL
Target sequence (Q15475 whole entry, looked up): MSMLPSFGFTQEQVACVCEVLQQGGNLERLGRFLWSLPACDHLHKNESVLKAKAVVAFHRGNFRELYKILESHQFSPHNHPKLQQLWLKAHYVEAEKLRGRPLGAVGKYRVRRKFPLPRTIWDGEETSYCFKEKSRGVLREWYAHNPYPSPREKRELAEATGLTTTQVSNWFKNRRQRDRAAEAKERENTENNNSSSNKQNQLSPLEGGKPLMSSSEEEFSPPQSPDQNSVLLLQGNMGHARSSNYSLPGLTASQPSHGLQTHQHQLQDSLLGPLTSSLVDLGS
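Homogeneous AlphaScreen proximity assay pairing GST-Six1 with His-tagged Eya2 (added as 5X mix: 250 nM and 500 nM) in 50 mM Tris pH 8.0, 300 mM NaCl, 1 mM TCEP. Glutathione donor and nickel acceptor beads; 1 h, 37 °C, dark.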
D2 PAM – potentiates the human D2 dopamine receptor allosterically; P14416; DiscoveRx D2 beta-arrestin cells, luminescence, 90 min; 100% = 57 uM dopamine signal; potentiation, % (test concentration not listed); hit rate 0.23% among 360,000; active = potentiation of 50% or more; inconclusive = 30% to 50%; inactive = 30% or less;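 also: compound concentration not given in the record; tested on top of an EC20 dose of dopamine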
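PathHunter beta-arrestin assay in DiscoveRx D2 cells. Compounds were added with an EC20 of dopamine (50 nM final) for 90 min at 37 deg C. Luminescence was read 1 h after detection reagent, with 57 uM dopamine as the EC100 control.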
Numbers without * were called inactive; ? = inconclusive; · = no result given; [ ] = another dose, or the depositor's remark.

SMILES,TRPML1 inh,TRPML1 ag,Six1-Eya2 blk,PINK1 expr mod,D2 PAM,D2 agonist
COc1ccc(C)c2sc(N(CCN(C)C)C(=O)c3ccc(S(=O)(=O)N(C)c4ccccc4)cc3)nc12,-2.7,-0.4,-9.2,1.2%,-31.9,-0.7
O=c1ccn([C@@H]2O[C@H](CNCc3ccc(-c4cc(C(F)(F)F)ccc4Cl)o3)[C@@H](O)[C@H]2O)c(=O)[nH]1,20.0,-0.4,1.3,-1.2%,-12.7,0.7
CCCn1c(=O)c(C(=O)Nc2ncccc2C)c(O)c2ccccc21,-22.4,3.0,-16.5,0.9%,5.6,-4.4
COc1cc(C(=O)Oc2ccccc2/C=N/NC(=O)c2ccc(Cl)cc2)cc(OC)c1OC,-5.4,1.7,-22.4,3.4%,-26.4,-2.7
CN(C)S(=O)(=O)c1ccc(N2CCCC2)c(C(=O)Nc2ccccc2OC(F)F)c1,-5.4,-0.2,-0.9,-0.2%,-1.0,-2.9
COc1cccc(-c2noc(C3CC(=O)N(c4ccc(F)cc4)C3)n2)c1OC (stereo unspecified),19.6,0.6,·,1.0%,·,·
Cc1cccc(C)c1NC(=O)CSc1nnc(C)c(=O)[nH]1,-5.4,0.0,3.8,1.9%,2.7,-3.3
CCOC(=O)c1[nH]c2ccc(OC)cc2c1NC(=S)N1CCN(c2cccc(C)c2C)CC1,28.6,-0.6,-18.3,6.0%,-2.8,-0.9
CCCn1c(N)c(N2CCCCC2)c(=O)n(CC(=O)Nc2ccc(C(C)=O)cc2)c1=O,-9.5,0.0,4.7,0.3%,-0.3,-14.2
CCOc1ccccc1NC(=O)Nc1ccc(CC#N)cc1,-6.3,0.1,-3.2,-0.1%,-11.3,-11.8
COc1ccc(C2(CNC(=O)c3ccccc3)CCCC2)cc1OC,16.2,-0.4,19.2,-0.9%,-3.0,-1.2
O=C(NC1CCN(Cc2ccc(Cl)c(Cl)c2)CC1)c1ccccc1,12.3,-0.5,2.0,1.1%,-37.2,2.5
COc1ccc(-c2nc(-c3ccc4c(c3)OCO4)[nH]c2-c2ccc(OC)cc2)cc1,15.3,-0.1,?,?,-26.7,-1.2
CC(NC(=O)c1cn(C)c2ccc(S(=O)(=O)N3CCCC3)cc2c1=O)c1ccccc1 (stereo unspecified),15.8,0.0,3.7,0.2%,-6.9,0.2
CCc1ccc(S(=O)(=O)c2nnn3c2nc(NC2CCCCCC2)c2sccc23)cc1,1.8,0.0,·,-0.2%,·,·
COc1ccc(S(=O)(=O)NCCSCc2ccccc2C)cc1Br,-7.5,-0.4,-3.0,-4.2%,-9.6,-1.4
COc1ccc(Br)cc1CNC(=O)C(C)n1nc(C)n2c(cc3occc32)c1=O (stereo unspecified),7.4,2.4,·,-0.3%,·,·
O=c1oc(CCCO)cc2ccc(C#Cc3cccnc3)cc12,32.7,-0.1,-3.0,-0.6%,16.7,4.5
CCOC(=O)C1=CN(Cc2ccco2)S(=O)(=O)NC1CC (stereo unspecified),18.6,-1.0,-5.0,-0.6%,5.2,-0.6
CCOC(=O)c1[nH]c(C)c(C(=O)N2CCc3ccccc32)c1C,-5.7,-0.9,3.1,4.9%,-12.6,-1.4
COc1ccc(NC(=O)CS(=O)(=O)c2cccc(Cl)c2)cc1,17.5,-0.3,12.3,2.2%,-0.1,-0.5
CN(C)S(=O)(=O)c1cc(NC(=O)COC(=O)Cc2ccc(Cl)cc2Cl)ccc1Cl,-8.6,1.9,-7.8,0.2%,-16.7,2.5
Cc1nn(C(C)CC(=O)O)c(C)c1Br (stereo unspecified),-9.6,0.3,6.5,14.4%[38.3 µM],-7.0,-0.2
CC(Sc1nc2cc([N+](=O)[O-])ccc2n1-c1cccc(C(F)(F)F)c1)C(=O)NC(N)=O (stereo unspecified),7.4,-0.7,0.3,7.0%,-1.8,-2.5
CCCCC(=O)OCCNC(=O)c1cc2ccccc2oc1=O,28.3,1.6,7.5,-0.6%,-1.1,-1.5
CCCCN(C(=O)CSCc1c(C)noc1C)c1c(N)n(CCC)c(=O)[nH]c1=O,4.1,0.8,-3.6,2.9%,-19.4,2.2
COc1ccc(S(=O)(=O)N2CCN(Cc3cccc(F)c3)CC2)cc1,80.0,0.4,30.6,0.0%,0.3,-6.0
COC(=O)C1=C(C)N(Cc2ccccc2)C(=NCc2cccc(Cl)c2)N[C@H]1c1ccccc1,23.7,0.7,0.4,-1.0%,-19.7,1.6
CCOC(=O)c1cc(-c2ccccc2)n(CCC(=O)NCCc2ccccc2)c1C,-12.7,3.3,·,0.8%,·,·
O=C(N/N=C/c1ccco1)c1cccc(N2CCCC2=O)c1,-1.8,0.5,3.0,-1.9%,-5.9,-3.8
O=C(NC1CCN(Cc2ccccc2)CC1)c1cn(-c2ccccc2)nc1-c1cccnc1,0.7,0.0,-8.6,0.3%,-28.2,-2.5
O=c1c2cc(F)ccc2[nH]c(=S)n1Cc1ccc(F)cc1,9.4,-0.7,0.5,10.2%,-7.2,0.4
CSc1ccc(CN2CCN(Cc3ccccc3)C(CCO)C2)cc1 (stereo unspecified),-8.5,0.0,-2.5,0.6%,-15.7,-0.7
Cc1csc(=O)n1CC(=O)OC(C)C(=O)Nc1ccc(N(C)C)cc1 (stereo unspecified),20.4,-0.4,-8.7,3.5%,0.4,-2.6
O=C(C(=O)N1CCOCC1)c1cn(CC(=O)N2CCCCC2)c2ccccc12,21.9,0.0,2.3,1.5%,9.7,-1.0
Cc1cccnc1CNC(=O)C1(C)CCCN1CC(C)C (stereo unspecified),·,-0.6,0.6,-0.2%,-5.1,-3.7
O=c1c(S(=O)(=O)c2ccccc2)cn(Cc2ccccc2)c2cc(N3CCOCC3)c(F)cc12,-14.6,0.4,·,-1.8%,·,·
O=C(CSc1nnc2ccccn12)N1CCc2ccccc2C1,-5.2,0.1,0.8,-1.2%,3.5,-3.0
O=C(c1ccccc1F)N(Cc1cccs1)C1CCS(=O)(=O)C1 (stereo unspecified),25.0,-0.5,7.7,4.5%,-9.3,-5.5
COc1ccc(-n2nc3c(c2NC(C)=O)CS(=O)(=O)C3)cc1,·,·,1.0,-0.5%,-9.5,-1.3
CC(=O)c1ccc(N2CCN(S(=O)(=O)c3ccc4c5c3CC(=O)N5CC(C)S4)CC2)cc1 (stereo unspecified),8.7,0.2,-11.9,5.0%,-7.6,15.0
Cc1ccc(COc2ccc(-c3cc(C(F)(F)F)n4nc(C)cc4n3)cc2)cc1,-3.4,-0.2,·,1.0%,·,·
COc1ccc(CN2CCN(CCCc3ccccc3)C(CCO)C2)cc1OC (stereo unspecified),-15.2,0.6,-9.8,-1.9%,-15.2,-2.4
Cc1nn(CC#N)c(=O)n1-c1ccc(Cl)cc1,5.8,-0.7,-9.3,2.1%,6.1,1.0
Cc1ccc(CNC(=O)CCCCn2c(=O)[nH]c3ccsc3c2=O)cc1,-8.1,0.4,-1.3,-1.1%,-14.8,-3.3
Cc1occc1-c1nnc(SCc2cc(=O)n3cc(Br)ccc3n2)n1C,-1.2,0.8,-4.6,-0.7%,-16.5,-0.4
Cc1cc(C)c(NC(=O)Nc2sc3nc4n(c(=O)c3c2C)CCC(C)CC4)c(C)c1 (stereo unspecified),-8.4,-0.5,·,3.8%,·,·
Cc1noc(C)c1NC(=O)N(C)C[C@H]1Oc2ccc(NC(=O)C3CC3)cc2C(=O)N([C@H](C)CO)C[C@@H]1C,12.2,-0.7,29.5,0.2%,-2.2,2.2
Cc1ccc(-n2ncc(C(=O)NCCN3CCc4ccccc4C3)c2C2CCNCC2)cc1C,3.0,0.1,·,-2.8%,·,·
CC(Oc1ccccc1)C(=O)Nc1c2c(nn1-c1ccccc1)CS(=O)(=O)C2 (stereo unspecified),4.3,-0.8,-6.3,13.4%,7.6,-0.7
COc1cc2c(c(OC)c1OC)C(c1ccc3c(c1)OCO3)CC(=O)O2 (stereo unspecified),15.2,-0.5,-0.9,1.9%,2.2,1.5
Cc1ccc(Cl)cc1NC(=O)CCC(=O)Nc1cc(Cl)ccc1C,13.1,0.9,1.4,1.5%,-5.1,-3.0
Cc1ccc(S(=O)(=O)CC(=O)N(C)C)cc1,-13.1,0.5,13.8,-1.4%,-3.6,4.2
CC1CCCCN1C(=O)COC(=O)CSc1ccc(C(N)=O)cc1[N+](=O)[O-] (stereo unspecified),-7.7,-0.6,-7.3,0.0%,-4.2,-4.2
O=C(Cn1cnc([N+](=O)[O-])n1)NCc1ccccc1,1.6,1.0,5.2,-1.1%,-18.6,0.8
O=C(COc1ccccc1)Nc1nnc(SCc2cc(=O)n3cc(Cl)ccc3n2)s1,-10.8,0.8,·,-2.2%,·,·
COc1ccccc1CCNC(=O)CCCn1c(=O)c2cccn2c2cccnc21,-9.9,0.1,·,-0.4%,·,·
COc1ccccc1OCc1nc2ccccc2[nH]1,-1.0,-1.3,-5.3,-3.2%,2.4,-2.0
CCC1=C(OC(=O)N(CC)CC)N2C(=O)OC(=NCc3ccccc3)[C@]2(C)[C@H]2C1=CC[C@H]1C(=O)N(CC(=O)OC)C(=O)[C@H]12,-2.5,1.8,6.0,1.6%,-6.1,-2.1
CCOC(=O)c1ccc(NC(=O)c2cc(C)nn2-c2ccccc2)cc1,-15.7,2.5,5.2,-2.8%,0.2,11.0

2 of the compounds above, with two lines to a compound.
Value order – TRPML1 inh, TRPML1 ag, Six1-Eya2 blk, PINK1 expr mod, D2 PAM, D2 agonist
O=C(Cn1cnc([N+](=O)[O-])n1)NCc1ccccc1
  1.6, 1.0, 5.2, -1.1%, -18.6, 0.8
COc1ccccc1OCc1nc2ccccc2[nH]1
  -1.0, -1.3, -5.3, -3.2%, 2.4, -2.0
